Compound activity (PubChem BioAssay)
D2 potentiator: positive allosteric modulators of human D2 dopamine receptor; P14416; DiscoveRx D2 beta-arrestin cells, luminescence, 90 min; 100% = 57 uM dopamine signal; potentiation, % (no concentration beside the values); hit rate 0.23% among 360,000; active = potentiation of 50% or more; inconclusive = 30% to 50%; inactive = 30% or less;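 further: compound concentration not given in the record; tested on top of an EC20 dose of dopamine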
Target sequence (P14416 whole entry, looked up): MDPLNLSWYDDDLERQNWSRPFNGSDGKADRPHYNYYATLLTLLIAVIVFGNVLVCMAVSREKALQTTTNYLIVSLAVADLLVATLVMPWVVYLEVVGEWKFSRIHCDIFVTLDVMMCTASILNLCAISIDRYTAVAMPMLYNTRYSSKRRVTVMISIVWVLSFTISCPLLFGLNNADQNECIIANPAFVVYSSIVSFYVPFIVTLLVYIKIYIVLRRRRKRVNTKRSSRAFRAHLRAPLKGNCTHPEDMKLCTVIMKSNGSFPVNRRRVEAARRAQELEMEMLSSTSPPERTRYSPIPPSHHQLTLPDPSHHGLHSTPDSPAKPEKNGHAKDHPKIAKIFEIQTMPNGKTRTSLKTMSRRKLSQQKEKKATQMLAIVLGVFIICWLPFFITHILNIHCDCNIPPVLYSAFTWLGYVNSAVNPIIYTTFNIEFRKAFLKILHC
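PathHunter D2 cells, attached overnight at 37 deg C, received compound in DMSO plus dopamine at EC20 (50 nM final) for 90 min at 37 deg C. Beta-arrestin recruitment was read as luminescence after 1 h with detection reagent at ambient temperature.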
PINK1 modulator: modulators of PINK1 expression; hit rate 0.2% among 410,000; AID 624263; Potency, µM (top dose mostly 76.6 µM), inactives show at the highest dose activation (PINK1 increase), hits mostly activators; PINK1 immunofluorescence, high-content cytometry, 24 h; active = well fitted activation curve with a large enough effect; inconclusive = small, poorly fitted or top-dose-only effect; inactive = flat fitted curve, though single readings scatter; cell line not stated here;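 further: potency means the concentration at half of the fitted maximal effect; % of control where 0% means no effect; nearly all actives have a fitted effect of over 65% in size; a mitochondrial uncoupler was the plate control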
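Stable cell line treated 24 h with compounds at 5 concentrations (CCCP controls), then fixed and immunostained for PINK1 plus nuclear and cell stains; PINK1 immunofluorescence quantified by laser-scanning microplate cytometry.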
Six1-Eya2 blk: blocks human Six1 binding to Eya2. AID 651725. Q15475+O00167. hit rate 0.56% among 360,000. AlphaScreen GST-Six1/His-Eya2 binding, biochemical; active compounds read low; control for the full effect not named in the record. activity change, % (concentration not given with the values); in the data active = activity change below about -65%; inconclusive = about -30% to -65%; inactive = above about -30%; further: on the % scale 0 is the no-effect control and ±100 the full control effect
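Six1/Eya2 binding was read as AlphaScreen signal after compounds were pinned into GST-Six1 plus His-tagged Eya2 (5X stock 250/500 nM) in pH 8.0 Tris/NaCl/TCEP buffer, beads added, then incubated 1 h, 37 C, dark.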
CtBP-E1A inh: blocks the CtBP interaction with E1A; AlphaScreen GST-E1A/His-CtBP binding, 1536-well; active compounds read low; control for the full effect not named in the record; activity change, % (test concentration not listed); hit rate 0.49% among 340,000; AID 651724; in the data active means activity change below about -65%; inconclusive means about -30% to -65%; inactive means above about -30%; further: on the % scale 0 is the no-effect control and ±100 the full control effect
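Protein mix (5X: 125 nM each GST-E1A, His-CtBP) was incubated with pinned compound 2 h at 37 deg C in dark, in 50 mM Tris pH 8.0 buffer with 300 mM NaCl. Glutathione donor and nickel acceptor beads followed; AlphaScreen signal read after 1 h.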
TRPML1 agonist: human mucolipin-1 channel agonism; Q9GZU1; activation, % (concentration not given with the values); TRPML1-expressing cells, Ca2+ dye fluorescence, FDSS; host cell line not named in the record; reference of the full effect not given here; hit rate 0.12% among 410,000; in the data active = activation above about 50%; inconclusive = about 30% to 50%; inactive = below about 30%; further: 0% is about no effect; the text of the record puts the active cut at 80%
Target sequence (Q9GZU1 whole entry, looked up): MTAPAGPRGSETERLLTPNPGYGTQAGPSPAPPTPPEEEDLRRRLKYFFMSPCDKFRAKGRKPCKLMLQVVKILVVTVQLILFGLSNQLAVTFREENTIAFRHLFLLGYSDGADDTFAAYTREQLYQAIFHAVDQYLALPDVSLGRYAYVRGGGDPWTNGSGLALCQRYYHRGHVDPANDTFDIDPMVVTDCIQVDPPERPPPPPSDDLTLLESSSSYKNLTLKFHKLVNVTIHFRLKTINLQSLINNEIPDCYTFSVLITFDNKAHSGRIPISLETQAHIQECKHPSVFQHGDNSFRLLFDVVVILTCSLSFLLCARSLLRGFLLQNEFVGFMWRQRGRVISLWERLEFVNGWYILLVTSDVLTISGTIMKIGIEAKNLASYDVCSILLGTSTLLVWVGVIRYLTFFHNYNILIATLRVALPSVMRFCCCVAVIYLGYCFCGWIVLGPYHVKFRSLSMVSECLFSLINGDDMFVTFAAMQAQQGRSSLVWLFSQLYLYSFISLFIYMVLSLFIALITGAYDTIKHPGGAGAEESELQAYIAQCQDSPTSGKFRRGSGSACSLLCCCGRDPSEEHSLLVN
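Kinetic FDSS Ca2+ read in Tet-induced TRPML1-DL cells (ABD Ca8 dye plus quencher, 45-90 min RT loading): baseline, then compound, then 110 s agonist window; EC80 agonist 54-4 at 4uM final added afterwards for a 110 s antagonist window.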
D2 agonist: human D2 receptor agonism in beta-arrestin assay. activation, % (no concentration beside the values). hit rate 0.084% among 360,000. DiscoveRx PathHunter D2 beta-arrestin, luminescence, 90 min; 100% = 57 uM dopamine signal; in the data active = activation above about 40%; inconclusive = about 15% to 40%; inactive = below about 15%; further: compound concentration not given in the record; the text of the record calls up to 30% inactive
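Agonist mode: compounds alone added to overnight-plated D2 PathHunter cells for 90 min at 37 C, with 57 uM final dopamine (EC100) defining full response. Beta-arrestin recruitment detected by chemiluminescent reagent, read after 1 h at ambient temperature.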
An asterisk follows results filed as active; ? = inconclusive; nt = no result given; & = joins results of further samples; [ ] = another dose, or the depositor's remark.

SMILES | D2 potentiator | PINK1 modulator | Six1-Eya2 blk | CtBP-E1A inh | TRPML1 agonist | D2 agonist
O=C(CCc1c[nH]c2ccccc12)NC1CC1 | -22.9 | -1.4% | 1.0 | 2.2 | 6.3 | -1.6
Cc1ccc(NC(=O)CC(=O)NCCN2CCOCC2)cc1 | 5.0 | nt | 2.9 | 2.9 | -0.1 | -0.4
Cc1cc(C)nc(/N=C(/NC(=O)c2ccccc2)Nc2ccccc2)n1 | -2.0 | 8.9% | -0.8 | 3.5 | -0.1 | -1.2
CCOC(=O)N1CCN(C(=O)Nc2cccc3ccccc23)CC1 | 6.7 | 0.2% | -0.9 | 0.2 | -0.7 | -4.6
Cc1nn(-c2ccccn2)c2c1C(=O)CC(C)(C)C2N=[N+]=[N-] (configuration not stated) | nt | 2.3% | -10.0 | -18.0 | 0.2 | 0.4
CC(=O)Nc1ccc(NS(=O)(=O)c2c(Cl)cccc2Cl)cc1 | -10.4 | 4.4% | 6.7 | -6.3 | nt | -0.4
COc1cc(OC)c(OC)cc1/C=N/Nc1ncnc2c1[nH]c1ccccc12 | 13.0 | 4.3% | ? | ? | -0.5 | -0.1
CCNC(=O)OCc1cn(-c2ccccc2)nn1 | -2.7 | 0.3% | 7.5 | -0.4 | -0.4 | -5.3
C#CCOCCOCCOCCNc1nc(N2CCOCC2)nc(N2CCN(C(=O)[C@H]([C@@H](C)CC)n3cc([C@@H](N)CO)nn3)CC2)n1 | -12.4 | 2.0% | 0.2 | -2.0 | -0.3 | -3.3
CCOC(=O)c1nnn(CC(=O)Nc2cccc(OC)c2)c1C(=O)OCC | 1.7 | -1.4% | 2.3 | 5.0 | 0.3 | -4.0
CC1=C(C(=O)N2CCCCC2)C2(CCC(C)CC2)OC1=O (configuration not stated) | -7.3 | 0.7% | -3.1 | 4.9 | 0.0 | -5.8
O=C(Nc1ccc(F)c(Cl)c1)N1CCCCCC1 | -10.0 | 0.3% | 2.6 | 2.0 | 0.8 | -0.3
CCc1c(C)sc(NC(=O)c2cc(C)on2)c1C#N | -5.8 | 0.0%[38.3 µM] | 1.5 | 2.6 | 0.0 | -1.8
CCOC(=O)c1cc(C)sc1NC(=O)CCC(=O)O | -7.6 | 8.3%[38.3 µM] | -2.6 | 5.3 | 0.5 | -1.5
CC(=O)Oc1ccc(CN2C(=O)C(CCc3ccccc3)ON=C2c2cnccn2)cc1 (configuration not stated) | -7.1 | 1.5% | -1.4 | 6.0 | -0.1 | 4.7

Part of the list above, with two lines to a compound.
Each structure is followed by: D2 potentiator | PINK1 modulator | Six1-Eya2 blk | CtBP-E1A inh | TRPML1 agonist | D2 agonist
CC1=C(C(=O)N2CCCCC2)C2(CCC(C)CC2)OC1=O (configuration not stated)
→ -7.3 | 0.7% | -3.1 | 4.9 | 0.0 | -5.8
O=C(Nc1ccc(F)c(Cl)c1)N1CCCCCC1
→ -10.0 | 0.3% | 2.6 | 2.0 | 0.8 | -0.3
CCc1c(C)sc(NC(=O)c2cc(C)on2)c1C#N
→ -5.8 | 0.0%[38.3 µM] | 1.5 | 2.6 | 0.0 | -1.8

(more compounds)
SMILES | D2 potentiator | PINK1 modulator | Six1-Eya2 blk | CtBP-E1A inh | TRPML1 agonist | D2 agonist
O=S(=O)(CCN1CCOCC1)c1ccc(Cl)cc1 | -2.5 | 0.7% | -5.7 | -11.0 | -0.4 | -4.7
CC(=O)C(=Cc1ccccc1)c1ccccc1 | nt | 0.5% | 3.2 | 3.3 | -1.1 | nt
CCC(=O)Nc1ccc(C(=O)NNC(=O)COc2cc(C)ccc2C)cc1 | -3.4 | 5.6% | 9.8 | 8.5 | -0.3 | -0.3
O=C(CSc1ncnc2c1oc1ccccc12)Nc1cccc(F)c1 | -16.9 | 10.1% | 6.0 | -6.0 | 2.8 | -0.7
O=C(OCCN1CCOCC1)C(c1ccccc1)c1ccccc1 | -12.7 | nt | -3.1 | -9.6 | -0.4 | -0.3
Cc1ccc(C)c(Cn2c(C(C)O)nc3ccccc32)c1 (configuration not stated) | -13.7 | 0.0% | 7.6 | -0.9 | 2.0 | -2.0
Cc1ccc(CNC(=O)CCn2nc(-c3ccc(Cl)cc3)ccc2=O)cc1 | -4.1 | -6.2%[38.3 µM] | -2.2 | 10.3 | -0.5 | 1.8
CC1=CC[C@@]23CCCN2C(=O)CCC[C@H]3C1 | nt | 0.0% | 0.0 | 5.4 | -0.4 | -0.5
Cc1cc(C)c2c(n1)SCC(=O)N2CC(=O)Nc1cccc(Cl)c1 | -4.9 | 3.2% | 0.3 | 1.4 | -0.3 | -2.9
CCc1ccc(NC(=O)C(=O)NCCN2CCN(C(=O)c3ccc(OC)cc3)CC2)cc1 | -16.8 | 2.7% | -6.2 | 0.3 | -0.6 | -2.8
O=C(NCc1ccccn1)c1[nH]c(C(F)(F)F)nc1-c1ccccc1 | -2.2 | -0.7% | -24.2 | -4.7 | -0.1 | -2.6
Cc1cnc(C(=O)N2CCCC(C(=O)c3ccc(C(F)(F)F)cc3)C2)cn1 (configuration not stated) | -0.8 | -2.7% | 4.8 | 3.1 | 0.0 | 3.8
CC1=CC(c2ccc(Cl)cc2)n2nc(NS(=O)(=O)c3ccc(C)cc3)nc2N1 (configuration not stated) | -0.3 | -5.3%[38.3 µM] | -2.3 | 1.8 | -0.6 | -0.4
CCN(CC)S(=O)(=O)c1ccc(N2CCCC2)c(C(=O)OCC(=O)/C(C#N)=C(\C)N)c1 | -5.8 | 15.3% | -3.9 | 7.0 | 1.0 | -1.3
O=C(CNC(=O)Cc1ccccc1)NCC(=O)OCc1ccc(C(=O)c2ccccc2)cc1 | -21.1 | 2.8%[38.3 µM] | 1.5 | 3.4 | 0.3 | -3.6
CCOC(=O)C1=C(C)NC(=O)NC1c1cccc(O)c1 (configuration not stated) | -9.1 | 6.4%[38.3 µM] | -0.2 | 0.4 | -0.5 | -1.7
CCC(c1nnnn1-c1ccc2c(c1)OCCO2)N1CCN(c2ccc(F)cc2)CC1 (configuration not stated) | nt | -0.9% | -7.9 | -1.2 | -0.5 | nt
O=C(OCc1cn([C@@H]2C[C@H](c3ccccc3)N(Cc3cccs3)C[C@H]2O)nn1)c1ccccc1 | nt | 3.6% | -1.7 | 5.2 | nt | -0.5
O=C(COC(=O)COc1ccc(Cl)cc1Cl)NC1CCCC1 | 1.6 | -0.5% | 3.1 | 2.8 | 0.7 | -1.5
CC1Oc2ccccc2OC1(O)c1ccccn1 (configuration not stated) | -12.7 | 1.2% | -2.8 | 9.6 | 0.0 | -7.9
CCOc1cc(C(=O)NCCOC)cc(OCC)c1OCC | -6.6 | 0.4% | 3.7 | 6.5 | -0.4 | -0.8
COc1ccc(C2C(C(=O)NC(C)C)c3ccccc3C(=O)N2C)cc1OC (configuration not stated) | 0.7 | 2.0% | 0.6 | 6.8 | -0.4 | -1.4
Cc1ccc(-n2[nH]c(C)c(C=Nc3ccc4[nH]c(=O)[nH]c4c3)c2=O)cc1 | 15.5 | -3.8% | -19.5 | ? | -0.4 | 4.1
C[C@H]1CN([C@@H](C)CO)S(=O)(=O)c2ccc(Br)cc2O[C@H]1CN(C)S(=O)(=O)c1ccccc1F | 2.7 | 1.5% | -0.7 | 1.8 | -0.7 | -2.0
CCOC(=O)c1cc(-c2ccccc2)n[nH]1 | 2.3 | 0.1% | 13.2 | 0.0 | 0.3 | -0.8
CCOC(=O)N1CCC(N2Cc3cccc(C(=O)Nc4ccc(CC)cc4)c3C2=O)CC1 | 13.5 | 10.5% | -5.6 | -11.6 | 0.7 | -0.9
CCC(=O)c1ccc(OCC(=O)OCC(=O)N(CCC#N)c2ccc3c(c2)OCCO3)cc1 | 1.9 | -0.1% | -3.5 | 9.1 | -0.2 | 3.5
CN1CCN(NC(=S)NC(C)(C)CC(C)(C)C)CC1 | -8.0 | 0.8% | 4.6 | 1.2 | 0.3 | -12.9
COc1ccccc1NS(=O)(=O)c1cccc(C(=O)NCC2(N3CCCCC3)CCCCC2)c1 | -27.0 | -4.7% | 1.2 | 8.8 | 1.1 | -8.7
COc1cc(C(=O)Oc2ccc(Br)cc2C(=S)N2CCOCC2)cc(OC)c1OC | 3.8 | 2.6% | -83.4* | -71.3* | 1.1 | 4.8
CC(C)c1ccc(S(=O)(=O)c2n[nH]n3c2nc(=O)c2ccccc23)cc1 | -3.9 | ? | -1.1 | 3.2 | -0.4 | 1.1
COC(=O)c1cc(S(=O)(=O)NCC2CCN(Cc3cccc(F)c3)CC2)cn1C | -20.8 | 0.9%&2.2% | -3.1 | -5.0 | 0.3&-0.1 | -5.6
Cc1ccc(S(=O)(=O)NC(=O)Nc2cc(C(C)(C)C)on2)cc1 | 0.5 | 0.1% | -15.4 | -10.9 | -0.2 | -6.0
COc1ccc(C(=O)NCC(=O)Nc2cccc(S(=O)(=O)N3CCCC3)c2)cc1 | -15.2 | -0.6% | -5.6 | -6.2 | 1.1 | 1.3
COc1ccc(-c2c3c(=O)n(C)c(=O)n(C)c3cn2Cc2cccnc2)cc1 | -1.0 | 3.2% | -5.2 | 3.5 | -0.6 | -2.9
COc1cccc(/C=C/C(=C2/C(=O)N(c3ccccc3)N=C2C)c2ccc(Br)cc2)c1OC | 3.3 | -2.1% | 0.2 | 0.8 | 0.5 | -0.4
Cc1cc(C(C)(C)C)ccc1OCC(=O)N/N=C\c1c(C)n(C)n(-c2ccccc2)c1=O | -6.8 | 6.3% | -15.4 | -4.8 | 1.6 | -3.8
COc1cccc(NC(=O)Nc2ccc(Cc3ccncc3)cc2)c1 | 8.1 | 1.1% | -0.8 | 11.3 | -0.5 | -1.4
COc1ccccc1NC(=S)N1CCNC(=O)C1CC(=O)Nc1cccc(C)c1 (configuration not stated) | -1.1 | -1.0% | -0.2 | 3.5 | 1.1 | -6.3
CSCCC(=O)N1CCCC(CNC(=O)c2ccccc2Cl)C1 (configuration not stated) | 2.0 | -1.2% | -1.6 | -23.8 | 0.4 | 7.0
COc1ccc(O)c(C(=O)c2cc(C#N)c(=O)n(-c3ccc(Cl)cc3)c2)c1 | 19.3 | 3.1% | -11.6 | 0.0 | 0.0 | 6.7
COc1ccccc1N1CCN(CC(=O)Nc2ccnn2C2CCCC2)CC1 | -18.6 | 1.0% | 6.4 | -0.2 | 0.6 | 1.2
CCOC(=O)C(Sc1nnc(-c2ccncc2)o1)C(C)=O (configuration not stated) | 0.4 | 3.4%[38.3 µM] | -4.0 | -13.9 | -0.3 | 4.9
N#Cc1ccc(C23CC4(C2)[C@H](CN(Cc2cccnc2)[C@@H]4c2ccccc2)C3c2ccccc2)cc1 (some centres not stated) | -18.7 | 0.7% | -1.3 | nt | 0.8 | -4.7
O=C(Nc1ccncc1)C1CCN(S(=O)(=O)c2ccccc2C(F)(F)F)CC1 | -11.2 | 2.4% | 0.4 | -5.6 | -0.3 | 0.3
CCN1CCCC1CNCc1ccc(Cl)cc1Cl (configuration not stated) | -9.3 | 4.1%[38.3 µM] | 4.7 | -12.1 | 0.5 | 0.8
Cc1ccc(NC(=O)/C(=C\c2cccc(Br)c2)NC(=O)c2ccco2)cc1 | -18.0 | nt | -5.4 | -6.7 | 2.0 | -1.3
CCCCCC/C(=N\NS(C)(=O)=O)c1ccccc1 | -8.8 | -2.0% | 1.7 | 3.1 | 4.8 | -0.6
